Screens (PubChem)
PABP FP inh: PABP poly(A) RNA binding inhibitors, primary screen, biochemical, fluorescence polarization, uHTS; Polyadenylate-binding protein 1 (Homo sapiens), P11940; AID 2014, 2009; inhibition, % at 35 µM; actives 1% (n = 290,000);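 active means 50% or more with normal probe brightness, or confirmed in later tests; about a fifth of its hits are not listed in these tables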;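 further: calls also rest on retests at 20 µM and on dose response follow-up; controls were probe without protein and protein plus probe with vehicle; some compounds called inactive have numbers as strong as hits; many hits fall short of the cut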
Target sequence (P11940 whole entry, looked up): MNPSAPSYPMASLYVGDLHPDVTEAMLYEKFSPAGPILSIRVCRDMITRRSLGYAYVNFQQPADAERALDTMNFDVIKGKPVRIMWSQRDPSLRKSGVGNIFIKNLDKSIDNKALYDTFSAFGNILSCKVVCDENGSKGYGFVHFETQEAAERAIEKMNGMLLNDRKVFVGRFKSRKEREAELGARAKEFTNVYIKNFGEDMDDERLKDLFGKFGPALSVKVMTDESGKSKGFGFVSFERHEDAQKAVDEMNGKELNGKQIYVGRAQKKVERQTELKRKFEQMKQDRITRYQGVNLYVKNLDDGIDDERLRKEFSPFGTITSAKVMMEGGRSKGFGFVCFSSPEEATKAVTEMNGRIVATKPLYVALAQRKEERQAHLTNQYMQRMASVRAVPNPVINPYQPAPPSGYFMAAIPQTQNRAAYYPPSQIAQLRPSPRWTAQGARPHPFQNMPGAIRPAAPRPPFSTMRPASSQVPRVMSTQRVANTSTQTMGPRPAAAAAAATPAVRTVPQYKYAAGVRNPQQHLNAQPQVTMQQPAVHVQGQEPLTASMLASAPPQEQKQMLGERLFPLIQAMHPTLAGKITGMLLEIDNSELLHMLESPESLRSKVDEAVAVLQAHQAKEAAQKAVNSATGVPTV
Yeast UUG start: modulators of yeast start codon fidelity, primary screen, whole organism, S. cerevisiae, single point, plate reader; S. cerevisiae UUG-firefly luciferase reporter, luminescence/redox ratio; activity score, % at 18.7 µM; actives 0.13% (n = 350,000);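 active means replicate mean at a twofold rise or more, about +100% in these data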;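 further: firefly luciferase made from a UUG start codon reports start codon fidelity; reporter light over untreated wells divided by growth signal over untreated wells; some hits fall short of that in this replicate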
Rce1 inh: yeast Rce1p protease inhibitors, primary screen, biochemical, fluorescence, cell-free homogeneous; yeast membranes, quenched prenylated peptide cleavage fluorescence; calls only; actives 0.27% (n = 290,000); AID 2563, 2010;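 active means fall in fluorescence gain of 50% or more versus controls, with final raw signal at or below 3038400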;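 further: plate controls were neutral control wells for no effect and wells lacking membranes for full effect; tested at 10 µM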
MT1-MMP act inh: blockers of MT1-MMP proenzyme processing, primary screen, HT1080 RFP-PRO-GFP cells, GFP/RFP fluorescence | GFP/RFP ratio fluorescence, overnight; percent of plate control window, DMSO zero | GFP/RFP ratio change, % at 20 µM | actives 0.061% (n = 360,000) | AID 651647, 2012;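 active means GFP/RFP ratio change of at least 30% with cell ATP level not reduced by more than half and red fluorescence within 50% of control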; further: strong numbers were not always called active
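Assay system: HT1080 RFP-PRO-GFP cells | Dosing: 20 µM single dose, 1% DMSO | Incubation: Cells overnight before dosing, compound overnight, 37 °C, 5% CO2 | Evaluation: GFP/RFP fluorescence ratio | Control set: DMSO-only wells and HT1080 RFP-L50D-GFP cell wells as references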
Env fusion inh: inhibitors of HIV-1 Env-driven cell-cell fusion, primary screen, HeLa-JRFL effector, CEM21 target cells, luciferase. inhibition, % at 12.3 µM. actives 1.1% (n = 360,000);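 active means mean replicate inhibition score of at least 50 and every replicate individually at or above 50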;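 further: 0% = plate neutral controls and 100% = maraviroc near 300 nM; one replicate is shown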
CSC inhib: cancer stem cell viability inhibitors, primary screen, luminescence; cancer stem cell-like cells viability; inhibition, % at 7.5 µM; actives 1.1% (n = 300,000); AID 2717, 2010;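 active means mean at 75% or more and at least half the replicates too; tested in HMLE shEcad cells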;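 further: 0% = median of negative and 100% = median of positive control wells; the first replicate is given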
eIF4H FP inh: human eIF4H binding inhibitors, primary screen, translation initiation inhibitor project, biochemical, uHTS, fluorescence polarization; eIF4H fluorescence polarization binding assay; actives 0.94% (n = 290,000); AID 2012, 2009; inhibition, % at 35 µM;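 active means 50% or more with normal probe brightness, or confirmed in later tests; about a fifth of its hits are not listed in these tables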;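 further: calls also rest on retests at 20 µM and on dose response follow-up; 0% = protein and probe with vehicle and 100% = probe without protein; strong numbers were not always called active; many hits fall short of the cut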
MT1-MMP act inh RFP: further read-out of MT1-MMP act inh, marked with its call; RFP signal change, %; measured here: RFP expression control read;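 0 = vehicle wells; hits needed this value within 50% of zero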
The depositor's hits bear a star; i = inactive; nt = not tested or not shown; & = joins results of further samples. These rows are one share of the data, so the mix of outcomes need not match the whole.

Value order – PABP FP inh	Yeast UUG start	Rce1 inh	MT1-MMP act inh	MT1-MMP act inh RFP	Env fusion inh	CSC inhib	eIF4H FP inh
Cn1nc([N+](=O)[O-])nc1Oc1ccc2ccccc2c1
 : 4	-18	i	0	-4	-17	-7	3
COCCNC(=O)C(=O)c1c(-c2ccccc2)[nH]c2ccccc12
 : 4	-3	i	2	1	10	-13	-10
O=C(NCCc1ccccc1)c1nc2nc(-c3cccs3)cc(C(F)(F)F)n2n1
 : 4	-18	i	-4	-8	-29	-7	6
CC(C)(C)c1ccc(OCCC(=O)NCCc2ccc(S(N)(=O)=O)cc2)cc1
 : -6	-16	i	2	-7	24	22	2
CC(C)c1ccc(S(=O)(=O)c2ccc(NN)cc2)cc1
 : 5	nt	nt	6	0	12	nt	1
O=C(NCC(c1ccc(F)cc1)N1CCOCC1)c1cccnc1Sc1ccc(Cl)cc1 (centres undefined)
 : nt	nt	i	-3	-7	-4	14	nt
Cc1ccn2c(=O)c(C(=O)NCCC3=CCCCC3)c(O)nc2c1
 : -2	-20	i	1	6	-5	8	1
O=C(COC(=O)/C=C/c1ccc(Cl)cc1)NCCN1C(=O)CSC1=O
 : 2	8	i	3	-3	10	8	-11
CCN(CC)C1=NC=CC(c2ccccc2)=CC1C (centres undefined)
 : 5	-12	i	-4	5	-6	6	5
O=[N+]([O-])c1ccc(Cl)c(-c2ccc(/C=N/n3cnnc3)o2)c1
 : 4	-16	i	-1	-1	-4	-4	9
CC(C)=CCN1CCN(Cc2cccc3nonc23)CC1CCO (centres undefined)
 : -4	nt	i	4	5	4	24	8
O=C(CNS(=O)(=O)c1ccccc1)Nc1ccc(C(F)(F)F)cc1
 : -3	-1	i	14	1	-12	3	-4
O=C(COC(=O)c1ccc(F)c(S(=O)(=O)N2CCOCC2)c1)c1ccccc1
 : nt	-19	nt	-3	-1	0	-13	nt
COc1ccccc1Nc1nnc(SCC(=O)N2CCCC2=O)s1
 : -3	-34	i	6	0	nt	15	-5
Cc1ccc(C(=O)CC(=O)c2cccc(F)c2)c(O)c1
 : -8	-22	i	-6	-3	61*	4	9
Cc1ccc(CNC(=O)C(NS(=O)(=O)c2cccc3nsnc23)C(C)C)cc1 (centres undefined)
 : 8	-22	i	-4	-1	12	nt	-9
CC1CCCCC1N=CC1=C(O)CC(C)(C)CC1=O (centres undefined)
 : 4	-17	i	-2	0	-4	-6	-4
C#CCNC(=O)C1=C[C@H](c2ccccc2)C[C@H](OCCCCO)O1
 : 2	-11	i	1	10	5	-5	-1
Cc1ccc(-n2nnnc2Sc2ccc(S(=O)(=O)NCCN(C)C)cc2[N+](=O)[O-])cc1
 : -4	-4	i	-16	-19	47	99*	10
CCOC(=O)c1c(C)cc2c(CO)n[nH]c(=O)c2c1C
 : nt	-10	nt	-4	-4	56*	nt	nt
O=C(Nc1cccc(Br)c1)C1CCCC1
 : nt	-5	nt	-4	-6	-3	-3	nt
CCC1CCCCN1CCCNC(=O)Cn1c(=O)c2cccn2c2cccnc21 (centres undefined)
 : 5	-8	i	0	5	-4	6	1
CN1CCN(C(=S)SCC(=O)Nc2nc(-c3ccccc3)c(-c3ccccc3)o2)CC1
 : 9	nt	i	7	3	-23	22	7
O=C1CSC(c2ccc(Cl)cc2)N1c1cccnc1 (centres undefined)
 : -2	-19	i	-2	0	1	-6	-4
Cc1cccc2cc(=O)[nH]c(C)c12
 : 55*	-24	i	-1	-3	nt	4	0
COc1ccccc1/C=N/NC(=O)c1sc(C)nc1C
 : -7	-11	i	0	2	-1	-8	-5
CCCCn1c(SCC(=O)NC(=O)NCc2ccco2)nc2cc(S(N)(=O)=O)ccc21
 : 7	-27	i	-7	-3	nt	-11	35
Cc1csc(SCC(=O)NC2CCCCC2)n1
 : 2	-14	i	1	1	nt	-7	-6
Cn1c(=O)n(-c2cccc(Cl)c2)c(=O)c2c3c(sc21)COC(C)(C)C3
 : -2	-15	i	6	0	114*	0	4
COc1ccc(OC)c(S(=O)(=O)N2CCC(C(=O)NCc3ccc4c(c3)OCO4)CC2)c1
 : 5	5	i	-2	2	0	-6	-9
COc1ccc(C(O)c2ncc(-c3ccccc3Cl)[nH]2)cc1 (centres undefined)
 : nt	-12	nt	9	0	-12	nt	nt
CC1(C)Cc2cccc(OCC(=O)Nc3cccnc3Cl)c2O1
 : 10	-16	i	1	1	nt	0	4
Cc1ccc(S(=O)(=O)N2CCC(C(=O)Nc3ccc(S(=O)(=O)N4CCOCC4)cc3)CC2)cc1
 : nt	-6	nt	-5	-16	29	nt	nt
Cc1ccc(NC(=O)NCc2ccc3c(c2)OCO3)c(C)c1
 : -2	-5	i	0	1	7	3	0
Oc1ccccc1-c1nnc(COc2ccc(Cl)cc2Cl)o1
 : -8	-19	i	6	-3	-68	21	9
O=C(NCc1ccccc1)C1=C[C@H](c2ccc(Br)cc2)C[C@H](OCc2ccc(CO)cc2)O1
 : -5	-14	i	6	-3	19	35	-8
S=C(NCCN1CCOCC1)N/N=C/c1c2ccccc2cc2ccccc12
 : -6	-27	nt	-52	-1	-90	36	-1
CCCCCCCCN1[C@@H](CC(=O)O)c2ccc(C(F)(F)F)cc2S1(=O)=O
 : nt	-13	i	3	0	8	-11	nt
Cc1ccc(S(=O)(=O)c2cc(N3CCOCC3)nc(-c3ccccc3)n2)cc1
 : -1	nt	i	-5	0	nt	31	-6
CC1Cc2ccccc2N1C(=O)COc1ccc2c(c1)OCO2 (centres undefined)
 : 0	-6	i	-3	-7	-7	-14	-8
C[C@H](CO)N1C[C@H](C)[C@@H](CN(C)Cc2ccncc2)Oc2c(NS(=O)(=O)c3cn(C)cn3)cccc2C1=O
 : nt	-20&-6	nt	1	4	-12	nt	nt
Cc1cccc(NC(=O)Nc2ccc([N+](=O)[O-])cc2)n1
 : -4	4	i	-3	-6	-6	1	-5
O=C(NC1CCCCCC1)c1cc2ccccc2oc1=O
 : 6	-11	i	-1	5	-95	5	4
O=C(Nc1cccnc1)c1ccc(Br)c(S(=O)(=O)N2CCCC2)c1
 : 5	-16	i	5	-9	-12	10	-9
CCCCNCC1C(Oc2ccc(Cl)cc2)C(=O)N1c1ccccc1C (centres undefined)
 : 0	nt	i	-5	-4	11	7	-4

Quoted from the listing.
CC1(C)Cc2cccc(OCC(=O)Nc3cccnc3Cl)c2O1 | eIF4H FP inh: 4
CCN(CC)C1=NC=CC(c2ccccc2)=CC1C (centres undefined) | Yeast UUG start: -12

Going on with the list:
Value order – PABP FP inh	Yeast UUG start	Rce1 inh	MT1-MMP act inh	MT1-MMP act inh RFP	Env fusion inh	CSC inhib	eIF4H FP inh
Cc1cc(OCc2cc(C(=O)N(Cc3nccn3C)C(C)C)no2)cc(C)c1Cl
 : 5	-7	i	4	-2	13	-2	-9
CCN1CCN(S(=O)(=O)c2ccc(OC)c(Br)c2)CC1
 : 5	2	i	0	10	-30	-5	3
O=c1cc(-c2ccccc2Cl)oc2cccc(O)c12
 : 8	-7	i	-1	-3	-7	-4	-6
CCOc1ccc(CCNC(=O)CN2C(=O)NC3(CCCCCC3)C2=O)cc1OCC
 : nt	-6	nt	3	0	-3	nt	nt
CCOC(=O)c1c(C)[nH]c(C(=O)CSc2nnc(C3CC3)n2N)c1C
 : -3	-26	i	3	3	-81	-9	-7
O=C(Nc1cccnc1)c1cnc2ccccc2n1
 : 3	-13	i	0	-2	nt	nt	-3
N#CCc1c(C#N)c(N)nc(N2CCN(c3ccc(F)cc3)CC2)c1C#N
 : 8	-5	i	1	6	-59	7	2
O=C(COC(=O)c1ccccc1NCCO)NCCC1=CCCCC1
 : nt	-8	i	2	5	2	-12	nt
COc1ccc2c(c1)SCC/C2=C\CN1C(=O)CCC1=O
 : -6	nt	i	-1	-1	-65	1	1
CCc1c(C2(O)CCCCC2)[nH]c2ncccc12
 : nt	-7	nt	6	-3	2	2	nt
COC(=O)C1CCN(C(=O)c2oc3c(Cl)cc(C)cc3c2C)CC1
 : -11	10	i	1	1	-76	9	-13
COc1ccc(C(=O)CSC#N)cc1OC
 : 11	nt	i	6	11	i	-4	-2
O=C(NCCC1=CCCCC1)c1ccc(F)cc1
 : -6	-43	i	6	-2	-86	-16	-2
COc1cc(OC)cc(-c2c(-c3cccs3)c3cc(-c4ccc(CN5CCOCC5)cc4)ccc3n2C)c1
 : nt	-10	nt	-5	-2	9	60	nt
Cn1nnnc1SCCOc1ccc(C#N)cc1
 : -2	-12	i	3	-4	nt	-11	0

Ordered by number of heavy atoms (lowest first): part of the list above.
Value order – PABP FP inh	Yeast UUG start	Rce1 inh	MT1-MMP act inh	MT1-MMP act inh RFP	Env fusion inh	CSC inhib	eIF4H FP inh
COc1ccc(C(=O)CSC#N)cc1OC
 : 11	nt	i	6	11	i	-4	-2
Cn1nnnc1SCCOc1ccc(C#N)cc1
 : -2	-12	i	3	-4	nt	-11	0
O=c1cc(-c2ccccc2Cl)oc2cccc(O)c12
 : 8	-7	i	-1	-3	-7	-4	-6
CCN1CCN(S(=O)(=O)c2ccc(OC)c(Br)c2)CC1
 : 5	2	i	0	10	-30	-5	3
COc1ccc2c(c1)SCC/C2=C\CN1C(=O)CCC1=O
 : -6	nt	i	-1	-1	-65	1	1
COC(=O)C1CCN(C(=O)c2oc3c(Cl)cc(C)cc3c2C)CC1
 : -11	10	i	1	1	-76	9	-13
CCOC(=O)c1c(C)[nH]c(C(=O)CSc2nnc(C3CC3)n2N)c1C
 : -3	-26	i	3	3	-81	-9	-7
N#CCc1c(C#N)c(N)nc(N2CCN(c3ccc(F)cc3)CC2)c1C#N
 : 8	-5	i	1	6	-59	7	2
Cc1cc(OCc2cc(C(=O)N(Cc3nccn3C)C(C)C)no2)cc(C)c1Cl
 : 5	-7	i	4	-2	13	-2	-9
CCOc1ccc(CCNC(=O)CN2C(=O)NC3(CCCCCC3)C2=O)cc1OCC
 : nt	-6	nt	3	0	-3	nt	nt
COc1cc(OC)cc(-c2c(-c3cccs3)c3cc(-c4ccc(CN5CCOCC5)cc4)ccc3n2C)c1
 : nt	-10	nt	-5	-2	9	60	nt

The list continues:
Value order – PABP FP inh	Yeast UUG start	Rce1 inh	MT1-MMP act inh	MT1-MMP act inh RFP	Env fusion inh	CSC inhib	eIF4H FP inh
CC(C)(/C=N/NC(=O)CSCc1ccccc1Cl)CCC#N
 : 7	nt	i	1	1	-16	1	-7
COc1cc(N)c(Cl)cc1C(=O)OCC(=O)c1cccs1
 : 2	nt	i	-1	0	-3	-4	-4
COc1cc(NC(=O)c2cc(C)nc3ccccc23)cc(OC)c1
 : -11	nt	i	1	-1	19	-2	-5
O=C(Nc1cccc(-c2ccc3nncn3n2)c1)C(F)(F)F
 : -2	-10	i	1	4	-9	-2	-12
Cc1ccc(N(C(=O)CNC(=O)c2cccs2)C(C(=O)NC2CCCC2)c2ccncc2)cc1 (centres undefined)
 : 0	-7	i	-6	-2	20	-4	-6
C/C(=N\NC(=O)c1ccccc1)c1ccc2c(c1)OCO2
 : 13	-11	i	3	11	-61	15	4
Cc1ccc(S(=O)(=O)N2CCCC2CNC(=O)C(=O)NC2CC2)cc1 (centres undefined)
 : nt	-23	i	0	2	0	nt	nt
CCCn1c(=O)c(C(=O)Nc2ccccc2C(=O)OCC)c(O)c2ccccc21
 : -10	-9	i	8	4	nt	nt	3
